Source: PubChem
MARV entry inh = blocks Marburg virus binding to or entry into cells; 300,000 tested, 1.8% active; Marburg virus pseudotyped entry inhibition, cell reporter; control for the full effect not named in the record; about a third of the inactives were read at about 46 µM; AID 540276; Potency, µM (series often up to 37.8 µM), inactives show top-dose activity change, negative = inhibition, hits mostly inhibitors; active = well fitted inhibition curve with a large enough effect; inconclusive = small, poorly fitted or top-dose-only effect, or effect the other way; inactive = flat fitted curve, though single readings scatter; tested in HEK293 cells; about a fifth of its hits are not listed in these tables; also: % is scaled to controls: 0 for no effect and ±100 for the full control effect; luciferase read-out
NS1 function inh = influenza NS1 inhibition; S. cerevisiae slowed by influenza A NS1, growth recovery by OD600; Potency, µM (highest dose often 46.1 µM), inactives show at the top dose activity, positive = more growth; 270,000 tested, 0.4% active; active means well fitted rising curve with a large enough effect; inconclusive means small, poorly fitted or top-dose-only effect; inactive means no such curve, though single readings can be large or run the other way; also: nearly all actives have a fitted effect of over 50% in size
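A cell-based growth assay was used: compounds that relieve NS1-induced slow growth of budding yeast raise OD600. Assay medium was yeast nitrogen base with ammonium sulphate and -URA supplement, pH 6.0, with 2% galactose.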
2A StopGo = lowers the luciferase signal of an FMDV 2A StopGo reporter. human cells with a luciferase reporter of 2A StopGo recoding; control for the full effect not named in the record. Potency, µM (titrated, usually from 57.9 µM), for inactives: at the highest dose signal change, negative = less light. 410,000 tested, 1.2% active; active = well fitted falling curve with a large enough effect; inconclusive = small, poorly fitted or top-dose-only effect; inactive = no such curve, though single readings can be large or run the other way; tested in HEK293T cells; also: % is scaled to controls: 0 for no effect and ±100 for the full control effect; nearly all actives have a fitted effect of over 45% in size; luciferase light after 4 h
Cruzain noTriton = cruzain (T. cruzi) inhibition without detergent; 200,000 tested, 2.3% active; AID 1476; P25779; Potency, µM, inactives show max response, negative = inhibition, most hits filed as inhibitors; purified cruzain, Z-FR-AMC fluorescence, no detergent;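 also: plate controls were enzyme without inhibitor for no effect and buffer without enzyme for full effect; nearly all actives have a fitted effect of over 40% in size; top concentration of the series not given in the record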
Target sequence (P25779 123-467 limits assumed): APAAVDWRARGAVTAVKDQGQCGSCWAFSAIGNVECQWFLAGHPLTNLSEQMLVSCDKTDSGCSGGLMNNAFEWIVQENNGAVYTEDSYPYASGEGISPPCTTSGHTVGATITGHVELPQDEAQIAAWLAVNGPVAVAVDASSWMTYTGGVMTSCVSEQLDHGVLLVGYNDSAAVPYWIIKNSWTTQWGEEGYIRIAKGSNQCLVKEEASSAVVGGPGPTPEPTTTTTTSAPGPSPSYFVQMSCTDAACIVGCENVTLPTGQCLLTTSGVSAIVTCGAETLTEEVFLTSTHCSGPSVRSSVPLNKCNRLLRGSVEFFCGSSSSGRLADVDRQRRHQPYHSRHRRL
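Purified cruzain at 1.5 nM, pre-incubated 15 min with compound at room temperature in 100 mM sodium acetate pH 5.5, 5 mM DTT, 0.00005% Triton X-100. Reaction started with 2 uM Z-FR-AMC; AMC fluorescence increase over 60 s gives rate.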
RE007 growth inh = less growth of the S. pombe RE007 Vpr strain; S. pombe RE007 Vpr strain, BacTiter-Glo ATP luminescence, 24 h; control for the full effect not named in the record; Potency, µM (doses to about 92.2 µM), for inactives: at the highest dose activity change, negative = less growth; 360,000 tested, 0.21% active; AID 651644; active = well fitted falling curve with a large enough effect; inconclusive = small, poorly fitted or top-dose-only effect; inactive = no such curve, though single readings can be large or run the other way;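 also: % is scaled to controls: 0 for no effect and ±100 for the full control effect; nearly all actives have a fitted effect of over 50% in size; the assay follows cell death caused by Vpr and the record does not say whether a fall means rescue or toxicity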
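Fission yeast strain RE007, carrying one chromosomally integrated HIV-1 vpr copy, was seeded at OD 0.01 in PMG+AL medium with 23 nL pinned compound. After 24 h at 30 °C and 99% humidity, viability was read by BacTiter-Glo luminescence.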
SARS PLP yeast = blocks SARS-CoV papain-like protease in a yeast assay. S. cerevisiae expressing SARS-CoV PLpro, growth rescue; control for the full effect not named in the record. Potency, µM (series often up to 32.9 µM), for inactives: at the top dose activity, positive = growth rescue. 330,000 tested, 0.19% active. AID 485353; active means well fitted rising curve with a large enough effect; inconclusive means small, poorly fitted or top-dose-only effect; inactive means no such curve, though single readings can be large or run the other way; also: 0% is about no effect; nearly all actives have a fitted effect of over 55% in size; growth read by luminescence after 48 h
Cruzain inh Det = inhibitors of Trypanosoma cruzi cruzain with detergent; purified cruzain, Z-FR-AMC fluorescence, 0.01% Triton; Potency, µM, for inactives: max response, negative = inhibition, hits mostly inhibitors; 200,000 tested, 0.43% active; AID 1478;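 also: plate controls were neutral wells for no effect and buffer without enzyme for full effect; nearly all actives have a fitted effect of over 40% in size; top concentration of the series not given in the record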
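Z-FR-AMC hydrolysis (2 uM substrate) by cruzain (1.5 nM) monitored kinetically at ex 360/em 450 nm after 15 min room-temperature compound exposure; 0.01% Triton X-100, pH 5.5, 5 mM DTT.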
Lassa entry inh = blocks Lassa virus binding to or entry into cells; Lassa virus pseudotype entry inhibition, cell reporter; control for the full effect not named in the record; Potency, µM (top dose mostly 37.9 µM), without a hit: at the top dose activity change, negative = inhibition, hits mostly inhibitors; 300,000 tested, 1.2% active; active means well fitted inhibition curve with a large enough effect; inconclusive means small, poorly fitted or top-dose-only effect, or effect the other way; inactive means flat fitted curve, though single readings scatter; tested in HEK293 cells; also: % is scaled to controls: 0 for no effect and ±100 for the full control effect; nearly all actives have a fitted effect of over 50% in size; luciferase read-out
* marks the source's active call; other numbers are inactive results; ? = inconclusive; nt = not tested or not shown; & = joins results of further samples; [ ] = dose if it differs, or a comment. Unless noted, calls follow the shape of the dose curve; as a rule, active = well fitted curve in the direction sought with a large enough effect; inconclusive = small, poorly fitted or top-dose-only effect, or another doubt; inactive = no such curve, though single readings can be large; an effect the other way counts as inactive or inconclusive. Potency is read from the fitted curve at half-maximal effect.

SMILES | MARV entry inh | NS1 function inh | 2A StopGo | Cruzain noTriton | RE007 growth inh | SARS PLP yeast | Cruzain inh Det | Lassa entry inh
Cc1noc(C)c1COc1ccc(C(=O)OCC(=O)Nc2cccc(S(=O)(=O)N3CCOCC3)c2)cc1 | 13.6% | ? | -22.9% | ? | 3.1% | -19.5% | -1.1% | 1.6%
COCCN(C(=O)CCC(=O)Nc1nccs1)C(C(=O)NC(C)(C)C)c1ccc(F)cc1 (configuration not stated) | 1.3%[46.1 µM] | -12.7% | -3.2% | nt | -4.3% | -2.8% | nt | 13.5%
Cc1cc(-n2c(C)nc3ccccc3c2=O)ccc1NC(=O)c1ccccc1[N+](=O)[O-] | nt | nt | ? | 2.4% | nt | nt | -0.4% | 16.5%[46.1 µM]
CCOC(=O)c1c(C)[nH]c(C)c1S(=O)(=O)N1CCN(C(=O)c2ccco2)CC1 | nt | 8.1% | -8.2% | nt | -12.1% | 1.0% | nt | nt
O=C(Nc1ccc(N2CCCC(O)C2)cc1)c1snc2c(=O)[nH]cnc12 (configuration not stated) | -12.7% | 3.5% | nt | -13.3% | -4.1% | -2.2% | -0.8% | -7.6%
Cc1nn(-c2ccccc2)c(Cl)c1/C=C1\SC(=S)N(C)C1=O | 1.8% | -2.0% | -17.9% | -16.5% | 4.3% | -12.6% | -4.5% | -16.2%
COc1cc(NC(=O)COc2ccc(C)c(C)c2)ccc1NC(=O)c1ccco1 | 23.7%[46.1 µM] | -39.4% | 5.3% | nt | 6.6% | -6.8% | nt | 7.5%[46.1 µM]
CS(=O)(=O)c1nc(-c2ccccc2)c(-c2ccccc2)[nH]1 | -0.9% | -4.5% | -6.6% | 7.9% | 28.1% | 3.3% | -4.4% | 7.8%
Cc1ccc(NS(=O)(=O)c2cccc(C(=O)NCCc3c[nH]c4ccccc34)c2)c(C)c1 | ? | 11.2µM* | 10.7% | -17.2% | -18.3% | -1.9% | -9.9% | ?
CN(CC(=O)Nc1cccc(F)c1)CC(=O)N(C)CC(=O)Nc1ccccc1Br | 4.3% | nt | -10.5% | nt | 8.1% | -5.7% | nt | -3.1%
CC1CCCC(C)N1CCNC(=O)CCn1nc(-c2ccccc2)ccc1=O (configuration not stated) | 4.2% | -9.7% | 2.8% | 9.6% | 14.0% | 4.1% | -2.3% | 22.3%
O=C(Cc1n[nH]c(=O)[nH]c1=O)N/N=C/c1cccc(O)c1 | 0.4% | -6.7% | 0.0% | -6.6% | -12.6% | -3.8% | 0.6% | -2.4%
O=C(N/N=C/c1cccnc1)c1cccc(NC(=O)c2ccccc2Cl)c1 | -17.9%[46.1 µM] | -5.9% | -8.0% | nt | 0.0% | 1.0% | nt | 14.7%
COc1ccc(S(=O)(=O)N2CCOC2CNC(=O)C(=O)NCCCN(C)C)cc1C (configuration not stated) | 26.8% | nt | -8.2% | nt | -2.5% | nt | nt | -0.5%
Cc1ccc(C2(c3noc(CN(C)Cc4ccccn4)n3)CCCC2)cc1 | 28.9%[46.1 µM] | -1.7% | ? | nt | -14.3% | 1.0% | nt | 5.7%[46.1 µM]
COc1ccc2[nH]c3c(c2c1)CCN1C(=O)C(CC(=O)NCc2ccco2)C[C@H](C(=O)N2CCCCC2)[C@@]31CCc1ccccc1 (some centres not stated) | 0.3% | nt | -3.7% | nt | 3.0% | -10.8% | nt | nt
Cc1ccc2cc(COC(=O)C3CCCO3)c(=O)[nH]c2c1 (configuration not stated) | -17.5% | 0.7% | -22.3% | -3.6% | 6.3% | -14.2% | -0.3% | 14.7%
CCOc1ccc(-c2c(C)nn3c(C)c(C(=O)NC(C)c4ccccc4)cnc23)cc1OCC (configuration not stated) | nt | nt | ? | ? | nt | nt | -4.3% | -12.7%[46.1 µM]
Cc1ccc2oc(C(=O)NCC3CCOCC3)c(C)c2c1 | nt | -2.3% | 28.9% | nt | 9.5% | -2.5% | nt | nt
C#CC(C)(CC)NC(=O)Cn1nnc(-c2ccc(OCc3ccccc3C)cc2)n1 (configuration not stated) | 17.5%[46.1 µM] | nt | -28.6% | -1.6% | nt | nt | -4.6% | ?

Continued, overlapping the part above by five compounds.
SMILES | MARV entry inh | NS1 function inh | 2A StopGo | Cruzain noTriton | RE007 growth inh | SARS PLP yeast | Cruzain inh Det | Lassa entry inh
COc1ccc2[nH]c3c(c2c1)CCN1C(=O)C(CC(=O)NCc2ccco2)C[C@H](C(=O)N2CCCCC2)[C@@]31CCc1ccccc1 (some centres not stated) | 0.3% | nt | -3.7% | nt | 3.0% | -10.8% | nt | nt
Cc1ccc2cc(COC(=O)C3CCCO3)c(=O)[nH]c2c1 (configuration not stated) | -17.5% | 0.7% | -22.3% | -3.6% | 6.3% | -14.2% | -0.3% | 14.7%
CCOc1ccc(-c2c(C)nn3c(C)c(C(=O)NC(C)c4ccccc4)cnc23)cc1OCC (configuration not stated) | nt | nt | ? | ? | nt | nt | -4.3% | -12.7%[46.1 µM]
Cc1ccc2oc(C(=O)NCC3CCOCC3)c(C)c2c1 | nt | -2.3% | 28.9% | nt | 9.5% | -2.5% | nt | nt
C#CC(C)(CC)NC(=O)Cn1nnc(-c2ccc(OCc3ccccc3C)cc2)n1 (configuration not stated) | 17.5%[46.1 µM] | nt | -28.6% | -1.6% | nt | nt | -4.6% | ?
COc1cc(CN(C2CCCCC2)S(=O)(=O)c2ccc(S(=O)(=O)N(C)C3CCCCC3)cc2)cc(OC)c1OC | ? | ? | -17.6% | -5.2% | 7.7% | 1.2% | -2.8% | -19.5%
CC(=O)Nc1ccc(NC(=O)CSc2nnc(-c3cc(C)[nH]n3)n2N)cc1 | -6.7%[46.1 µM] | 0.1% | -8.3% | nt | -10.6% | 0.5% | nt | 8.1%[46.1 µM]
Nc1scc[n+]1Cc1cccc2cccnc12 | nt | -42.7% | -23.6% | nt | -8.6% | 0.5% | nt | nt
COc1cccc(C(=O)NNC2OC(CO)C(O)C2O)c1 (configuration not stated) | ? | nt | -8.8% | nt | 4.7% | 0.0% | nt | 9.2%
O=C(N/N=C/c1ccc(Br)s1)c1cccnc1 | 3.3% | -0.4% | 8.7% | nt | 24.2% | -1.3% | nt | 11.9%
Cc1ccc(Cn2c(CN3CC(C)OC(C)C3)nc3c2c(=O)[nH]c(=O)n3C)cc1 (configuration not stated) | 2.0% | -0.6% | -16.8% | -3.7% | 11.3% | 1.8% | -0.6% | 4.2%
COc1cc(C2SCC(=O)Nc3c2c(C)nn3-c2ccccc2)cc(OC)c1OC (configuration not stated) | -0.3% | -18.1% | -5.1% | 11.3% | 7.5% | 1.9% | 0.2% | -1.6%
CCN(CC)S(=O)(=O)c1ccc(N2CCc3ccccc3C2)nc1 | ? | 12.9% | -2.3% | nt | 7.6% | -11.3% | nt | 9.6%[46.1 µM]
Cc1ccc(CN2CCC(CNC(=O)Nc3ccccc3F)CC2)cc1 | ? | 1.5% | -20.4%&-25.5% | -9.0% | -2.1% | -1.4% | -1.9% | 9.1%[46.1 µM]
C/C(=N\NC(=O)CSc1nc2ccccc2o1)c1cccc(O)c1 | nt | 1.5% | -5.7% | nt | 12.2% | 1.9% | nt | nt
O=C(CCS(=O)(=O)c1ccc(Br)cc1)Nc1ccccn1 | -6.4% | -3.2% | -16.0% | 6.7% | -2.6% | 7.0% | -2.7% | -5.2%
CC(=O)N1CCCN(Cc2cn(-c3cc(C)ccc3C)nc2-c2ccccc2)CC1 | -1.1%[46.1 µM] | 0.6% | 1.0% | nt | -9.7% | 1.1% | nt | -18.1%[46.1 µM]
O=C(Nc1ccc(O)c(-c2nc3ccccc3s2)c1)C1=COCCO1 | ? | 9.4% | -0.8% | 2.4% | -4.6% | 1.9% | -6.0% | 11.6%
Cc1ccc(C2(C)NC(=O)N(CC(=O)NC(=O)NCCC(C)C)C2=O)cc1 (configuration not stated) | 13.4% | 5.0% | nt | ? | 13.1% | 3.1% | -2.9% | -5.2%
Cc1cc(C)cc(NC(=O)C2CCCN2C(=O)NC2CCCCC2)c1 (configuration not stated) | nt | 3.8% | -8.5% | nt | -10.1% | 0.4% | nt | nt
COc1cc(C(=O)NC2(C(F)(F)F)C(=O)NC(C)=C2C#N)cc(OC)c1OC (configuration not stated) | nt | nt | -9.6% | 0.4% | nt | nt | -1.2% | 19.8%[46.1 µM]
CC(CC(=O)Nc1ccccc1)NCCCN1CCCC1=O (configuration not stated) | -12.0%[46.1 µM] | 2.2% | 0.7% | nt | 0.2% | -1.4% | nt | -15.9%
C/C(=N\Nc1cccc(C(=O)O)c1)c1cc2ccccc2o1 | ? | nt | 55.4%[activator] | nt | -2.8% | -7.1% | nt | nt
COc1ccc(NC(=O)CSc2nnc(C3CC3)n2N)cc1 | 2.5% | -12.4% | 9.5% | -5.7% | 5.5% | -2.4% | 9.0% | -5.6%
COC(=O)COc1ccc2c(=O)c(-c3ccccc3)coc2c1 | 8.4%[46.1 µM] | -7.2% | -27.2% | nt | 5.0% | -3.0% | nt | -18.8%[46.1 µM]
NS(=O)(=O)c1cccc(NC(=O)CC23CC4CC(C2)CC(CC(=O)Nc2cccc(S(N)(=O)=O)c2)(C4)C3)c1 | nt | 2.4% | -13.6% | nt | 1.0% | -0.2% | nt | nt
Cc1onc(-c2c(Cl)cccc2Cl)c1C(=O)OCC(=O)c1ccccc1 | nt | 1.1% | ? | nt | -1.5% | -4.6% | nt | nt
O=Cc1ccc(OCC(=O)NC(=O)NC2CCCCC2)cc1 | -18.2% | -9.6% | 0.8% | 9.6% | 0.3% | -3.9% | -3.1% | 0.0%
Cn1c(SCc2ccc([N+](=O)[O-])cc2)nnc1-c1ccncc1 | nt | 6.6% | -23.4% | nt | -3.3% | -0.1% | nt | nt
COC(=O)c1sc(S(=O)(=O)N2CCN(CCO)CC2)c(C(=O)OC)c1C | ? | nt | 1.5% | nt | -21.5% | 4.7% | nt | 6.7%[46.1 µM]
